Autofluor counter = compound fluorescence in toxin protease inhibitor counterscreen; compound autofluorescence counterscreen, microsphere flow cytometry; active compounds read high; fluorescence intensity (no concentration beside the values); hit rate 3.1% among 360,000; AID 624483;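 active = at least 3 SD above the mean of all compounds, about 16000 in these data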;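 note: 100 nL of 1 mM stock went into each well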
Sa RN4220 lethal = S. aureus RN4220 growth inhibition; hit rate 0.33% among 330,000; inhibition, % (concentration not given with the values); OD600, 16 h;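 active = z-score of -3 or lower and OD600 up to 0.18 on both plates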;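 note: plate controls were untreated cells for no effect and reference antibiotic for full effect; stock transfer was 100 nL into about 80 µL; one replicate is shown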
Mtb hypoxia rep = Mtb hypoxia fluorescent reporter inhibition. M. tuberculosis hypoxia-regulated fluorescent reporter, fluorescence. fluorescence inhibition, % (test concentration not listed). hit rate 0.1% among 300,000. AID 1159583;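 active = 35 to 45% if threefold the growth effect, above 45% if 1.5-fold the growth effect; inactive = the rest, general growth blockers included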;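 note: wells of about 50 µL received 100 nL stock; 0% = vehicle wells and 100% = reference inhibitor wells; whole bacteria with a GFP reporter of the hypoxia response; strong numbers were not always called active; many hits fall short of the cut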
ugtP null kill = growth inhibition of S. aureus ugtP deletion strain. AID 1259309. hit rate 0.54% among 330,000. growth inhibition, % (test concentration not listed). S. aureus RN4220 ugtP deletion, OD600 growth, 16 h; some inactives read as strong as hits;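 active = z-score under -3 and OD600 up to 0.15 on both plates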;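 note: plate controls were untreated wells for no effect and antibiotic for full effect; wells of about 80 µL received 100 nL stock; the first replicate is given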
BJeLR lethal = kills HRASV12-expressing BJeLR cells; BJeLR (HRASV12) viability, CellTiter-Glo ATP luminescence, 48 h; reference of the scale not given here; inhibition, % (no concentration beside the values); hit rate 0.17% among 300,000; AID 1554;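 active = replicate mean above 50%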;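 note: 50 nL library stock added to about 25 µL; numbers are from one replicate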
PrP UTR inh = suppresses PrP 5' UTR mRNA reporter expression; cell-based PrP 5' UTR mRNA reporter, plate reader; inhibition, % (concentration not given with the values); hit rate 0.35% among 340,000; AID 488862;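 active = every replicate at 50% or more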;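 note: 0 = median of the neutral control wells; tested in H4 reporter cells; numbers are from one replicate; inactives centre near -14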
Mtb hypoxia rep growth = further read-out of Mtb hypoxia rep, marked with its call; growth inhibition, %; measured here: M. tuberculosis growth (absorbance);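 0% = vehicle and 100% = reference antibiotic; read after six days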
* marks the source's active call; other numbers are inactive results. An unsorted share of the library; overall some 4% were active at least once.

For CN(C)S(=O)(=O)c1ccc(C(=O)NCC(=O)NN=Cc2ccccc2Cl)cc1 the results were Sa RN4220 lethal 2.9, Mtb hypoxia rep 3, ugtP null kill 3 and Mtb hypoxia rep growth 3.
For COc1cc2ncnc(NCc3ccc4c(c3)OCO4)c2cc1OC the results were Autofluor counter 3846, Sa RN4220 lethal 9.9, Mtb hypoxia rep 14, ugtP null kill 4, BJeLR lethal 5, PrP UTR inh -12 and Mtb hypoxia rep growth -2.
`O=C(O)c1ccccc1C=Nn1c(C2CCCCC2)n[nH]c1=S` gave Sa RN4220 lethal 28, Mtb hypoxia rep 13, ugtP null kill 19 and Mtb hypoxia rep growth 9.
`Cc1cc(Cl)c(S(=O)(=O)Nc2ccon2)cc1OCC(=O)NC1CCCCC1` gave Autofluor counter 10581, Sa RN4220 lethal 3.2, Mtb hypoxia rep 4, ugtP null kill 6, BJeLR lethal -4, PrP UTR inh -11 and Mtb hypoxia rep growth 8.
For N#Cc1ccccc1NC(=O)CNc1ccccc1N1CCCCC1 the results were Autofluor counter 22615*, Sa RN4220 lethal 4.1, Mtb hypoxia rep 0, ugtP null kill 0, BJeLR lethal 2, PrP UTR inh -14 and Mtb hypoxia rep growth 7.
Screening CCc1cccc(OCC(=O)Nc2c[nH]c(=O)[nH]c2=O)c1 returned Autofluor counter 4231, Sa RN4220 lethal 3.6, Mtb hypoxia rep 3, ugtP null kill 6, BJeLR lethal -5, PrP UTR inh -17 and Mtb hypoxia rep growth 4.
For C=CCn1c(=O)c(C#N)cc2c(=O)n3ccccc3nc21 the results were Autofluor counter 3401, Sa RN4220 lethal -14, Mtb hypoxia rep -7, ugtP null kill -7, BJeLR lethal -4, PrP UTR inh 2 and Mtb hypoxia rep growth 3.
`O=C1OC(c2ccc(Br)cc2)=N/C1=C\N1CC2CC(C1)c1cccc(=O)n1C2` (configuration not stated) gave Autofluor counter 4510, Sa RN4220 lethal 0.0, Mtb hypoxia rep 0, ugtP null kill 16, BJeLR lethal 1 and Mtb hypoxia rep growth 4.
CCOC(=O)Cn1c(S(=O)(=O)Cc2ccccc2)nc2ccccc21 was read as Autofluor counter 4457, Sa RN4220 lethal -5.7, Mtb hypoxia rep 1, ugtP null kill -6, BJeLR lethal 0, PrP UTR inh -6 and Mtb hypoxia rep growth 9.
Cc1ccc(NC(=O)COC(=O)c2ccco2)cc1C was read as Autofluor counter 2795, Sa RN4220 lethal 10, Mtb hypoxia rep 13, ugtP null kill 4, PrP UTR inh -6 and Mtb hypoxia rep growth 0.
Screening Cc1ccc(-c2cc(C(=O)N3CCN(c4ncccn4)CC3)c3cc(Br)ccc3n2)o1 returned Autofluor counter 4382, Sa RN4220 lethal -1.9, Mtb hypoxia rep -13, ugtP null kill -12, BJeLR lethal -2, PrP UTR inh -4 and Mtb hypoxia rep growth -5.
For C=C(C)C1CC=C(C)C(=NNC(=O)COc2ccc(Cl)cc2)C1 (configuration not stated) the results were Sa RN4220 lethal 1.5, Mtb hypoxia rep 1, ugtP null kill 3 and Mtb hypoxia rep growth 5.
O=C(COC(=O)c1ccc2ccccc2c1)Nc1ncc(C(F)(F)F)cc1Cl was read as Autofluor counter 2161, Sa RN4220 lethal -2.3, ugtP null kill -24, BJeLR lethal 3 and PrP UTR inh -15.
Cc1c(Br)c([N+](=O)[O-])nn1CC(=O)Nc1ccc(C(N)=O)cc1 was read as Autofluor counter 4452, Sa RN4220 lethal 3.9, Mtb hypoxia rep 6, ugtP null kill 6, BJeLR lethal -8, PrP UTR inh -19 and Mtb hypoxia rep growth -1.
Screening CCN1CC2C3C(=O)N(Cc4ccccc4)C(=O)C3[C@](C)(C1=O)N2C(=O)c1ccc(C(C)(C)C)cc1 (some centres not stated) returned Sa RN4220 lethal 7.8, Mtb hypoxia rep 16, ugtP null kill 4 and Mtb hypoxia rep growth 1.
CN(C)C(=O)c1nc2ccc(Cl)cn2c1CN1CCCC(OCc2cccnc2)C1 (configuration not stated) was read as Autofluor counter 2504, Sa RN4220 lethal 4.4, Mtb hypoxia rep 2, ugtP null kill 5, BJeLR lethal 2, PrP UTR inh -5 and Mtb hypoxia rep growth -3.
`O=C(COC(=O)c1ccccc1Br)Nc1ccc(F)cc1` gave Autofluor counter 4203, Sa RN4220 lethal 10, Mtb hypoxia rep 15, ugtP null kill 2, BJeLR lethal -5, PrP UTR inh -20 and Mtb hypoxia rep growth 10.
For O=C(COc1cccc2ccccc12)NNC(=O)[C@@H]1CCCC[C@@H]1C(=O)O the results were Autofluor counter 2076, Sa RN4220 lethal -1.8, ugtP null kill -3, BJeLR lethal 0 and PrP UTR inh -3.
`COc1ccc(-n2nnnc2SCC(=O)c2cccc(OC)c2)cc1` gave Autofluor counter 11023, Sa RN4220 lethal 14, Mtb hypoxia rep 1, ugtP null kill -2, BJeLR lethal -3, PrP UTR inh -12 and Mtb hypoxia rep growth -4.
`O=C(CCCn1c(=O)c2cccn2c2cccnc21)NCCc1ccc(Cl)cc1` gave Autofluor counter 5648, Sa RN4220 lethal -3.1, Mtb hypoxia rep -5, ugtP null kill 1, BJeLR lethal -5, PrP UTR inh 0 and Mtb hypoxia rep growth 1.

The last four records of the section before come first, to join the parts.
`O=C(COC(=O)c1ccccc1Br)Nc1ccc(F)cc1` gave Autofluor counter 4203, Sa RN4220 lethal 10, Mtb hypoxia rep 15, ugtP null kill 2, BJeLR lethal -5, PrP UTR inh -20 and Mtb hypoxia rep growth 10.
For O=C(COc1cccc2ccccc12)NNC(=O)[C@@H]1CCCC[C@@H]1C(=O)O the results were Autofluor counter 2076, Sa RN4220 lethal -1.8, ugtP null kill -3, BJeLR lethal 0 and PrP UTR inh -3.
`COc1ccc(-n2nnnc2SCC(=O)c2cccc(OC)c2)cc1` gave Autofluor counter 11023, Sa RN4220 lethal 14, Mtb hypoxia rep 1, ugtP null kill -2, BJeLR lethal -3, PrP UTR inh -12 and Mtb hypoxia rep growth -4.
`O=C(CCCn1c(=O)c2cccn2c2cccnc21)NCCc1ccc(Cl)cc1` gave Autofluor counter 5648, Sa RN4220 lethal -3.1, Mtb hypoxia rep -5, ugtP null kill 1, BJeLR lethal -5, PrP UTR inh 0 and Mtb hypoxia rep growth 1.
CN1CCN(CCC(=O)NN=C/C=C2\N(C)c3ccccc3C2(C)C)CC1 was read as Sa RN4220 lethal 0.0, Mtb hypoxia rep 0, ugtP null kill -2 and Mtb hypoxia rep growth 7.
Screening Cc1nc(C)c(C(=O)OCC(=O)Nc2ccccc2)s1 returned Autofluor counter 3064, Sa RN4220 lethal -1.3, Mtb hypoxia rep 0, ugtP null kill -5, PrP UTR inh -9 and Mtb hypoxia rep growth 5.
N#C/C(=C\c1ccco1)C(=O)Nn1cnnc1 was read as Autofluor counter 3215, Sa RN4220 lethal 11, Mtb hypoxia rep 14, ugtP null kill 9, BJeLR lethal 10, PrP UTR inh 2 and Mtb hypoxia rep growth 8.
COCCNP(=O)(c1ccccc1)c1nc2ccccc2s1 (configuration not stated) was read as Sa RN4220 lethal -2.4, Mtb hypoxia rep 0, ugtP null kill -3, BJeLR lethal -9 and Mtb hypoxia rep growth 2.
Screening CN(C)c1ccc(C=NN=C(N)N)cc1[N+](=O)[O-] returned Sa RN4220 lethal 3.7, Mtb hypoxia rep 20, ugtP null kill 5 and Mtb hypoxia rep growth -5.
For CCOc1ccc(CCNC(=O)C2CC(=O)N(C3CCCC3)C2)cc1OCC (configuration not stated) the results were Autofluor counter 5947, Sa RN4220 lethal 0.9, Mtb hypoxia rep -2, ugtP null kill 3, BJeLR lethal -1, PrP UTR inh -26 and Mtb hypoxia rep growth 3.
`Cc1ccc(C(=O)NC(C)CN2C3=NCC(C(C)C)N3CC2Cc2ccc(O)cc2)cc1Br` (configuration not stated) gave Sa RN4220 lethal -0.3, Mtb hypoxia rep 4, ugtP null kill -7 and Mtb hypoxia rep growth 8.
OCCOCC#CCN1CCOCC1 was read as Autofluor counter 3472, Sa RN4220 lethal -8.4, Mtb hypoxia rep 5, ugtP null kill 0, BJeLR lethal -11, PrP UTR inh -17 and Mtb hypoxia rep growth 2.
`CCOc1ccc(C(=O)c2nc3c(n2O)CCCC3)cc1` gave Autofluor counter 6817, Sa RN4220 lethal 1.9, Mtb hypoxia rep -2, ugtP null kill 3, BJeLR lethal -1, PrP UTR inh -19 and Mtb hypoxia rep growth -1.
For CCC(C)(C(=O)NC1CCCCC1)N(Cc1cccs1)C(=O)c1ccc(=O)[nH]c1 (configuration not stated) the results were Autofluor counter 2442, Sa RN4220 lethal 1.2, Mtb hypoxia rep -4, ugtP null kill 4, BJeLR lethal -5, PrP UTR inh 8 and Mtb hypoxia rep growth -4.
`CCOc1ccc(CN2CCC(n3nccc3NC(=O)C3CC3)CC2)cc1CO` gave Autofluor counter 6362, Sa RN4220 lethal 3.2, Mtb hypoxia rep 4, ugtP null kill 4, BJeLR lethal 3, PrP UTR inh -18 and Mtb hypoxia rep growth -1.
Screening COc1ccc(NC(=O)c2cc(S(=O)(=O)N3CCOCC3)cs2)cc1 returned Autofluor counter 2246, Sa RN4220 lethal 10, Mtb hypoxia rep -2, ugtP null kill 11, BJeLR lethal -4, PrP UTR inh -32 and Mtb hypoxia rep growth 6.
Screening Cc1c(CCO)c(=O)[nH]n1C(=O)c1ccc(F)cc1 returned Autofluor counter 23529*, Sa RN4220 lethal 6.2, Mtb hypoxia rep 9, ugtP null kill -7, BJeLR lethal 3, PrP UTR inh -29 and Mtb hypoxia rep growth 6.
Cc1ccnc(NC(=O)CCC(=O)N(CC(=O)NCc2ccccc2)Cc2ccco2)c1 was read as Autofluor counter 4912, Sa RN4220 lethal 4.0, Mtb hypoxia rep 4, ugtP null kill 8, BJeLR lethal -8, PrP UTR inh -17 and Mtb hypoxia rep growth -1.
Screening COCc1ccc(CN2CCc3c([nH]c4ccccc34)C2CC(C)C)o1 (configuration not stated) returned Autofluor counter 4764, Sa RN4220 lethal -3.3, Mtb hypoxia rep -6, ugtP null kill -4, BJeLR lethal -3, PrP UTR inh -7 and Mtb hypoxia rep growth 12.
For CN1CCN(/C=N/c2sc3c(c2C#N)CCCCC3)CC1 the results were Autofluor counter 3258, BJeLR lethal -7 and PrP UTR inh -80.
For COc1ccc(NC(=O)Cc2nnc(SCC(=O)Nc3ccccc3)n2C)cc1 the results were Autofluor counter 3041, Sa RN4220 lethal 3.7, Mtb hypoxia rep 15, ugtP null kill 4, BJeLR lethal -15, PrP UTR inh -22 and Mtb hypoxia rep growth 0.
O=C(CN1C(=O)C2CCCCC2C1=O)Nc1cccc([N+](=O)[O-])c1 (configuration not stated) was read as Autofluor counter 5347, Sa RN4220 lethal 4.2, Mtb hypoxia rep 8, ugtP null kill 8, BJeLR lethal 0, PrP UTR inh -1 and Mtb hypoxia rep growth 1.
[2H]C(CCOS(N)(=O)=O)c1ccccc1 (configuration not stated) was read as Autofluor counter 3787, Sa RN4220 lethal 4.3, Mtb hypoxia rep 7, ugtP null kill -9, BJeLR lethal 10, PrP UTR inh 5 and Mtb hypoxia rep growth 11.
`CC(C)Cn1c(-c2csc3c2CCCC3)n[nH]c1=S` gave Autofluor counter 17069*, Sa RN4220 lethal 7.3, Mtb hypoxia rep 1, ugtP null kill 2, PrP UTR inh -7 and Mtb hypoxia rep growth 5.
Screening Cc1c(C(=O)c2ccccc2)c2ccccn2c1CCC#N returned Sa RN4220 lethal 3.8, Mtb hypoxia rep 7, ugtP null kill -8, BJeLR lethal 2, PrP UTR inh 0 and Mtb hypoxia rep growth -4.
O=C(O)/C=C/C(=O)Nc1cccc2cccnc12 was read as Autofluor counter 3230, Sa RN4220 lethal 1.2, Mtb hypoxia rep -1, ugtP null kill 5, BJeLR lethal -11, PrP UTR inh -38 and Mtb hypoxia rep growth -4.
`CC(C)NC(=O)CCS(=O)(=O)c1ccc(Br)s1` gave Autofluor counter 11024, Sa RN4220 lethal 5.7, Mtb hypoxia rep 15, ugtP null kill 5, BJeLR lethal 0 and Mtb hypoxia rep growth 11.
Screening CCN(CC)CCN1C(=O)c2ccccc2NC1c1ccccc1F (configuration not stated) returned Autofluor counter 8865, Sa RN4220 lethal 7.1, Mtb hypoxia rep 14, ugtP null kill 10, BJeLR lethal -13, PrP UTR inh -18 and Mtb hypoxia rep growth 7.
`CC(=O)Nc1ccccc1NC(=O)c1cc(C)ccc1C` gave Autofluor counter 4961, Sa RN4220 lethal 5.4, Mtb hypoxia rep 12, ugtP null kill 0, BJeLR lethal -1, PrP UTR inh -17 and Mtb hypoxia rep growth 1.
